Compound activity: PubChem BioAssay, several laboratories
CSC inhib = blocks cancer stem cells. inhibition, % at 7.5 µM. AID 2717. cancer stem cell-like cells viability, luminescence. hit rate 1.1% among 300,000;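 active means mean at 75% or more and at least half the replicates too; inconclusive means mean and replicates disagree; tested in HMLE shEcad cells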;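 further: 0% = median of negative and 100% = median of positive control wells; the first replicate is given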
HIV Env fusion = HIV envelope-mediated fusion inhibition; hit rate 1.1% among 360,000; HeLa-JRFL Env/CEM21 cell fusion, luciferase; inhibition, % at 12.3 µM;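 active means mean replicate inhibition score of at least 50 and every replicate individually at or above 50; inconclusive means only one of the two criteria met; inactive means mean below 50 and not all replicates reaching 50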;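 further: 0% = plate neutral controls and 100% = maraviroc near 300 nM; one replicate is shown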
MT1-MMP act inh = inhibitors of human MT1-MMP activation | P50281 | AID 651647 | GFP/RFP ratio change, % at 20 µM | hit rate 0.061% among 360,000 | HT1080 RFP-PRO-GFP cells, GFP/RFP ratio fluorescence, overnight; percent of plate control window, DMSO zero;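 active means GFP/RFP ratio change of at least 30% with cell ATP level not reduced by more than half and red fluorescence within 50% of control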; further: strong numbers were not always called active
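Assay system: RFP-PRO-GFP reporter HT1080 cells; read-out basis: GFP/RFP fluorescence ratio; benchmarks: DMSO wells and RFP-L50D-GFP cells; doses: 20 µM single dose, 1% DMSO; schedule: overnight cell settling, then overnight compound exposure, 37 °C, 5% CO2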
Yeast UUG start = alters start codon recognition fidelity in yeast. hit rate 0.13% among 350,000. AID 602363. activity score, % at 18.7 µM. S. cerevisiae UUG-firefly luciferase reporter, luminescence/redox ratio;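 active means replicate mean at a twofold rise or more, about +100% in these data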;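 further: firefly luciferase made from a UUG start codon reports start codon fidelity; reporter light over untreated wells divided by growth signal over untreated wells; some hits fall short of that in this replicate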
Rce1 inh = yeast Ras-converting enzyme inhibition | Q03530 | yeast membranes, quenched prenylated peptide cleavage fluorescence | calls only | hit rate 0.27% among 290,000 | AID 2563;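 active means fall in fluorescence gain of 50% or more versus controls, with final raw signal at or below 3038400; inconclusive means same 50% fall but final raw signal above 3038400; inactive means fall in fluorescence gain under 50%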;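 further: plate controls were neutral control wells for no effect and wells lacking membranes for full effect; tested at 10 µM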
PABP FP inh = blocks human PABP binding to poly(A) RNA; P11940; fluorescence polarization; inhibition, % at 35 µM; hit rate 1% among 290,000;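 active means 50% or more with normal probe brightness, or confirmed in later tests; inconclusive means above 50% with abnormal brightness, or retests that disagree; inactive means below 50% or failed in later tests; about a fifth of its hits are not listed in these tables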;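 further: calls also rest on retests at 20 µM and on dose response follow-up; controls were probe without protein and protein plus probe with vehicle; some compounds called inactive have numbers as strong as hits; many hits fall short of the cut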
Target sequence (P11940 whole entry, looked up): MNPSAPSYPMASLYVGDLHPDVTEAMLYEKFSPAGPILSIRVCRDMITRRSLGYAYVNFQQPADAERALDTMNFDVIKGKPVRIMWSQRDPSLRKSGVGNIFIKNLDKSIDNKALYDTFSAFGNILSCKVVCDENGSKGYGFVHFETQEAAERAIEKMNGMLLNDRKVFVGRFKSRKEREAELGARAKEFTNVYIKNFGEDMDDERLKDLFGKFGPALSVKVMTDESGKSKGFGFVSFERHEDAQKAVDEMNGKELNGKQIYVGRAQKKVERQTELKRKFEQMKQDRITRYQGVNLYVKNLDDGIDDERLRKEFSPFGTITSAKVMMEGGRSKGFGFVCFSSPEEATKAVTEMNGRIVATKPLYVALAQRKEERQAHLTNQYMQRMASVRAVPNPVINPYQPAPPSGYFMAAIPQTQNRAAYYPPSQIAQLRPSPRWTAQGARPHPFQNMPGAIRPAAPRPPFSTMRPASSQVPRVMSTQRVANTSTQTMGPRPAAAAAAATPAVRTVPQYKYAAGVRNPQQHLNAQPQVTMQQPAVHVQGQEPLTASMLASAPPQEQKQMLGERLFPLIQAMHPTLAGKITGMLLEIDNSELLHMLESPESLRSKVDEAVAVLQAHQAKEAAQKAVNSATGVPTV
eIF4H FP inh = inhibitors of RNA binding by human eIF4H | Q15056 | eIF4H fluorescence polarization binding assay | hit rate 0.94% among 290,000 | inhibition, % at 35 µM | AID 2012;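 active means 50% or more with normal probe brightness, or confirmed in later tests; inconclusive means above 50% with abnormal brightness, or retests that disagree; inactive means below 50% or failed in later tests; about a fifth of its hits are not listed in these tables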;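 further: calls also rest on retests at 20 µM and on dose response follow-up; 0% = protein and probe with vehicle and 100% = probe without protein; strong numbers were not always called active; many hits fall short of the cut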
eIF4H FP inh retest = recorded beside eIF4H FP inh, whose call it bears; inhibition, %; compound at 20 µM; confirmation average;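 mean of two retest wells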
PABP FP inh retest = also measured in PABP FP inh; calls as there; inhibition, %; compound at 20 µM; confirmation repeats;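 mean of two retest wells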
MT1-MMP act inh RFP = second read-out of MT1-MMP act inh, no call of its own (marks repeat the call); RFP signal change, %; measured here: RFP expression control read;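 0 = vehicle wells; hits needed this value within 50% of zero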
* hit, by the source's call; i = inactive; u = inconclusive; x = not tested or not shown; & = joins results of further samples.

SMILES	CSC inhib	HIV Env fusion	MT1-MMP act inh	MT1-MMP act inh RFP	Yeast UUG start	Rce1 inh	PABP FP inh	eIF4H FP inh	others
O=C(CSc1nnc(SCc2ccc(Cl)cc2)s1)N/N=C/c1c(Cl)cccc1Cl	44	20	0	-10	-30	i	-3	-7
Fc1ccc(Nc2cncc(-c3ccsc3)c2)cc1Cl	x	-5	-4	-2	-13	x	x	x
CCN(CC(=O)Nc1c(F)cccc1F)C(=O)CCNC(=O)c1ccccc1OC	-8	23	1	4	5	i	x	x
CCC(C)C1NC(=S)N(C2CCCCC2)C1=O (centres undefined)	x	20	-3	2	-20	i	-3	-12
O=C(Cn1cnc2c(NCc3ccccc3)ncnc21)NCCN1CCOCC1	x	7	2	4	-5	x	x	x
CCCOc1ccc(CCN2CCC(=O)NC2=O)cc1C	5	x	10	2	-7	i	0	6
CC1(C(=O)Nc2cccc3c2CCCC3)CCN1C(=O)C1(c2ccc(Cl)cc2)CC1 (centres undefined)	x	-4	-2	-6	-5	x	x	x
COc1cccc(-c2cccc(-c3nc(C(=O)NCc4ccc5c(c4)OCO5)cc4c3[C@H](CCO)N(S(=O)C(C)(C)C)C4)c2)c1 (some centres undefined)	x	31	-1	1	0	x	x	x
CC(=O)c1cccc(N=C2NC(=O)C(CO)(CO)S2)c1	-3	-14	-5	-4	-26	i	6	-19
COc1ccc(CN2C(=O)NC3(CCOc4ccccc43)C2=O)cc1F (centres undefined)	-12	-11	-3	-5	x	i	-4	-1
COc1ccc(N2CCN(C(=O)CSc3ncnc4scc(-c5ccc(C)cc5)c34)CC2)cc1	3	-23	63	52	-22	i	x	x
O=C(COc1cc(O)c2c(=O)cc(-c3ccccc3)oc2c1)c1ccccc1	-1	x	1	1	x	i	9	-13
COC(=O)c1sccc1-c1ccc(C(=O)Nc2ccccc2)o1	11	-110	-2	-5	0	i	6	2
CCCCN1Cc2c(nc3cc(-c4ccco4)[nH]n3c2=O)C1=O	11	-9	1	0	-20	x	84*	88*
Cc1c(NC(=O)c2cc(-n3cnnc3)ccc2Cl)cccc1-c1nc2ccccc2s1	-1	-241	-4	-6	-24	i	-4	2
CN(Cc1ccco1)S(=O)(=O)c1nnc(NC(=O)c2ccccc2Cl)s1	1	3	-3	4	11	i	x	x
Cc1cc(C2=NNC(=NCc3ccccc3)SC2)c(C)n1-c1c(C)n(C)n(-c2ccccc2)c1=O	x	-1	-2	5	x	i	14	3
NC(c1csc(Nc2cc(NCCCO)ncn2)n1)c1ccccc1Cl (centres undefined)	x	10	-3	-1	-15	x	x	x
CCCCN1CC[C@@H]2C=CC[C@H](C(=O)OC)[C@@H]2C1=O	x	-116	4	8	-26	x	x	x
CCc1ccccc1NC(=S)NC1CC2CCCC(C1)N2Cc1cccs1 (centres undefined)	4	x	1	1	-24	i	1	-7
CC(C)OC(=O)NC(c1ccccc1)C(Cl)(Cl)Cl (centres undefined)	-2	-3	x	x	x	i	-9	-3
Cc1cc(=O)[nH]c(SCC(=O)N2CCCC2)n1	-12	-7	1	1	-12	x	x	x
Cc1ccc(S(=O)(=O)N2CCN(Cc3cccc(C)c3O)CC2)cc1	6	x	-5	-1	-11	i	-15	-3
Cc1nc(SCC(=O)Nc2cccc(S(=O)(=O)N3CCOCC3)c2)nc(C)c1C	-10	-18	1	-2	-11	x	x	x
O=C(Nc1cccc(Oc2ccc3c(c2)C(=O)NC3=O)c1)c1ccco1	2	x	0	1	-15	i	-2	9

(further entries)
SMILES	CSC inhib	HIV Env fusion	MT1-MMP act inh	MT1-MMP act inh RFP	Yeast UUG start	Rce1 inh	PABP FP inh	eIF4H FP inh	others
O=C(CSc1nnc2ccccn12)c1ccc(Cl)cc1	-5	-29	-1	3	-22	i	-18	4
Cc1nc(C)c(-c2ccnc(/N=C/NO)n2)s1	5	-31	0	4	x	i	-4	11
COc1ccccc1CNc1nc(Nc2cccc(-c3cnco3)c2)c2sccc2n1	x	0	-11	-20	-10	x	x	x
COCc1c(C(=O)OC)nnn1-c1ccc(C(F)(F)F)cc1[N+](=O)[O-]	-11	-3	4	0	x	i	3	7
C=CCNC(=S)NN(c1ccccc1)c1ccccc1	7	-11	3	2	-13	i	-10	-7
Cc1cccnc1Nc1nc(-c2ccc(F)cc2)cs1	16	-164	1	-7	-20	i	5	1
COc1ccc(C(=O)Nc2ccccc2-c2ccccc2)cc1Cl	11	-6	-3	-5	x	i	2	3
Cc1ccc(S(=O)(=O)NC(C)C(c2cccs2)N2CCN(C)CC2)cc1 (centres undefined)	-8	-25	-13	-5	-7	i	-9	6
CC(=O)c1c(-c2ccc(Cl)cc2Cl)noc1C	-2	6	2	2	-19	i	-9	-14
Cc1nc(C(F)(F)F)ccc1C(=O)N1CCC1(C)C(=O)NCc1cccs1 (centres undefined)	x	2	0	1	-7	x	x	x
CCOC(=O)[C@H](CCc1ccccc1)N[C@@H](C)C(=O)N1CCC[C@H]1C(=O)O	-16&0	-11	14&1	-3&-1	0&-13	i	-14	-7
CC1(C(=O)Oc2ccccc2)Cc2ccccc2C(=O)O1 (centres undefined)	-7	13	-2	1	x	i	2	-4
Cc1ccc2c(CC(=O)Nc3ccc(F)c(S(=O)(=O)N4CCOCC4)c3)coc2c1	x	-2	2	-6	-6	x	x	x
O=C(Nc1nnc(-c2ccc3c(c2)OCCO3)o1)c1ccc(Cc2ccccc2)cc1	x	5	4	8	-2	i	9	6
Cc1onc(-c2c(Cl)cccc2Cl)c1C(=O)Nc1ccc2c(c1)OCO2	-11	x	-3	-7	-7	i	-1	-8
O=C(C1CCN(S(=O)(=O)c2cccc3nsnc23)CC1)N1CCN(c2ccccc2F)CC1	-4	9	-1	-2	-6	i	-5	0
c1ccc(NCc2nnc3n2CCCCC3)cc1	-3	x	2	1	x	i	4	-8
CC(C)C(NC(=O)c1c(F)cccc1F)C(=O)NCC(c1ccccc1)N(C)C (centres undefined)	-7	-3	-1	4	-11	i	84	2	eIF4H FP inh retest=46;PABP FP inh retest=45
O=C1CCCC(O)=C1C1C2=C(CCCC2=O)Oc2ccccc21 (centres undefined)	4	-33	1	2	-15	i	0	-2
O=C(O)c1cccc(NS(=O)(=O)c2ccc(S(=O)(=O)N3CCOCC3)cc2)c1	x	-14	-1	-1	0	i	-5	-13
O=C(NNC(=O)c1nn(-c2ccc(F)cc2)ccc1=O)c1ccc(Cl)cc1	-1	-2	4	1	-13	i	-5	15
CC(C)(CNC(=O)c1cc2c(s1)CCCC2)N1CCOCC1	-5	4	-4	1	x	i	x	x
Cc1ccccc1CN1CCNC(=O)C1CC(=O)N(C)CCC1CCOCC1 (centres undefined)	-3	-11	-1	5	-4	i	5	7
CNC(=O)/C=C1\NC(C)(C)Cc2ccccc21	-1	x	-3	0	-4	i	31	2
O=C(CSc1nnc(-c2ccccn2)n1Cc1ccco1)Nc1ccc2c(c1)OCO2	-13	7	0	0	-4	i	8	-1

More results.
SMILES	CSC inhib	HIV Env fusion	MT1-MMP act inh	MT1-MMP act inh RFP	Yeast UUG start	Rce1 inh	PABP FP inh	eIF4H FP inh	others
CN(CC(=O)Nc1ccc(F)cc1)C(=O)c1cccc(NS(=O)(=O)c2ccccc2)c1	-29	x	3	1	0	x	x	x
CCCCN(c1ccccc1)S(=O)(=O)N(C)C	-3	-39	-2	4	x	i	-8	0
CCc1ccccc1NC(=O)CCS(=O)(=O)c1ccc(OC)cc1	x	29	-5	-4	-12	i	3	54*	eIF4H FP inh retest=58*;PABP FP inh retest=17
CC(=O)N1CCN(C2=NC(=O)C(=C3CCCCC3)S2)CC1	-13	x	-1	1	-8	i	56	18	eIF4H FP inh retest=-2;PABP FP inh retest=7
CC(=O)Nc1c(O)n(C)c2ccccc12	5	x	-1	0	-21	i	-8	-9
O=C(O)c1ccccc1-c1c2cc(I)c(=O)c(I)c-2oc2c(I)c(O)c(I)cc12	21	12&17	19&16	62&61	-25&-23	x	x	x
Cc1cc(=O)n(CC(=O)Nc2cc(Cl)ccc2C)c(C(C)C)n1	-16	2	0	-2	x	i	-10	-4
O=C(CSc1nc2ccccc2nc1N1CCOCC1)N1CCN(c2ccccc2)CC1	-8	2	-3	-4	-7	i	-6	-11
CCCCN(C1CCS(=O)(=O)C1)S(=O)(=O)c1cc(C)ccc1C (centres undefined)	-8	7	-3	-4	-13	i	x	x
CC(C)c1nnc(NC(=O)C2CCN(c3nc4ccccc4s3)CC2)s1	x	-21	2	-2	-4	i	-3	7
Cc1ccc(-n2nc(CC#N)c(C#N)c2N)cc1	0	x	-5	1	x	i	0	11
Cn1cccc1C(=O)NCC(c1ccc(F)cc1)N1CCOCC1 (centres undefined)	13	-8	1	3	-22	i	-5	-19
CCOC(=O)c1cc(C#N)c(SCC(=O)c2cc(C#N)c(SC)nc2C)nc1C	7	x	-16	-9	-15	i	-2	-3
Cc1ccsc1/C=C1\SC(N2CCOCC2)=NC1=O	7	x	0	1	-13	i	-10	-9
O=C(COc1ccc([N+](=O)[O-])cc1)N(Cc1cccs1)C1CCS(=O)(=O)C1 (centres undefined)	-2	0	2	4	-1	i	18	-2
COc1ccc(S(=O)(=O)N2CCCC(C(=O)N3CCN(C)CC3)C2)cc1Cl (centres undefined)	3	x	1	2	-16	i	-2	-8
O=C(Cc1ccccc1)N/N=C/c1cc(Br)cc(Cl)c1O	20	26	-5	-2	x	i	0	11
CC1=C(C(=O)OC(C)C)C(c2c[nH]c3ccccc23)n2ncnc2N1 (centres undefined)	-1	-35	13	5	-23	i	8	9
COC(=O)C1=CN(Cc2ccccc2)C=C(C(=O)OC)C1c1cc(F)ccc1F	3	14	-2	-11	-1	i	2	2
O=S(=O)(Nc1cc(Sc2cccc3cccnc23)c(O)c2ccccc12)c1ccc(F)cc1	119*	35	x	x	x	i	12	6
O=C(NCCCCc1ccccc1)C12CN(Cc3ccccc3)CC1C(c1cccc([N+](=O)[O-])c1)=NO2 (centres undefined)	3	29	-12	-14	-19	i	-5	-12
COc1cc(OC)cc(C(=O)NC(=S)Nc2cccnc2)c1	-7	x	2	5	-13	i	0	8
CCCCC/C=C/C1=CC(=O)C[C@H](c2ccc3c(c2)OCO3)C1	47	-6	1	4	-21	x	x	x
COc1ccc(N2CCN(C(=O)c3oc4ccccc4c3NC(=O)Cc3cccc(OC)c3)CC2)cc1	8	-1	-6	-7	-11	i	5	4
Nc1nnnn1/N=C/c1cc(Cl)ccc1O	2	4	-42	1	1	i	21	20

Additional structures follow.
SMILES	CSC inhib	HIV Env fusion	MT1-MMP act inh	MT1-MMP act inh RFP	Yeast UUG start	Rce1 inh	PABP FP inh	eIF4H FP inh	others
COc1ccc(/C=C(\C#N)C(=O)OCC(=O)Nc2ccc(-c3nc4ccc(C)cc4s3)cc2)cc1	5	-96	-1	0	-4	i	-11	-6
C#CCOC(=O)/C(=C/c1ccc(F)cc1)NC(C)=O	-8	x	1	4	-22	i	5	-10
CCOC(=O)c1ccc(N(C(=O)c2ccco2)C(C(=O)NC2CCCC2)c2ccncc2)cc1 (centres undefined)	-22	-8	1	-1	-4	i	4	-8
Cc1cccn2c(=O)nc(SCC(=O)Nc3cccc4ccccc34)nc12	1	88*	2	0	x	i	x	x
COc1ccc2c(Cl)c(C(=O)NN3CCN(C)CC3)sc2c1	-4	1	2	0	0	i	4	5
COc1ccc(-c2cn(Cc3ccc(C)cc3)nn2)cc1	13	-59	6	-6	-11	i	4	0
Clc1cccc(Cl)c1/C=C/c1nc2ccccc2[nH]1	-2	x	-2	-6	-33	u	-3	2

Rows are unselected. About 2.9% of those tested had a hit in this group.
